Bioassay records as filed in PubChem BioAssay.
MARV entry inh: qHTS for inhibitors of binding or entry into cells for Marburg Virus | Marburg virus pseudotyped entry inhibition, cell reporter; control for the full effect not named in the record; about a third of the inactives were read at about 46 µM | Potency, µM (highest dose often 37.8 µM), for inactives: top-dose activity change, negative = inhibition, most hits filed as inhibitors | 300,000 compounds, 1.8% hits | AID 540276, 2011; active = well fitted inhibition curve with a large enough effect; inconclusive = small, poorly fitted or top-dose-only effect, or effect the other way; inactive = flat fitted curve, though single readings scatter; tested in HEK293 cells; about a fifth of its hits are not listed in these tables; further: on the % scale 0 is the no-effect control and ±100 the full control effect; luciferase read-out
RE007 growth inh: qHTS Assay for Inhibitors of the HIV-1 protein Vpr; Potency, µM (titrated, usually from 92.2 µM), inactives show at the top dose activity change, negative = less growth; AID 651644, 2012; S. pombe RE007 Vpr strain, BacTiter-Glo ATP luminescence, 24 h; control for the full effect not named in the record; 360,000 compounds, 0.21% hits; active = well fitted falling curve with a large enough effect; inconclusive = small, poorly fitted or top-dose-only effect; inactive = no such curve, though single readings can be large or run the other way;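 further: on the % scale 0 is the no-effect control and ±100 the full control effect; nearly all actives have a fitted effect of over 50% in size; the assay follows cell death caused by Vpr and the record does not say whether a fall means rescue or toxicity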
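Fission yeast strain RE007, carrying one chromosomally integrated HIV-1 vpr copy, was seeded at OD 0.01 in PMG+AL medium with 23 nL pinned compound. After 24 h at 30 °C and 99% humidity, viability was read by BacTiter-Glo luminescence.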
2A StopGo: High Throughput Screening for Foot and Mouth Disease Virus Antivirals. human cells with a luciferase reporter of 2A StopGo recoding; control for the full effect not named in the record. Potency, µM (highest dose often 57.9 µM), for the others: at the top dose signal change, negative = less light. 410,000 compounds, 1.2% hits; active = well fitted falling curve with a large enough effect; inconclusive = small, poorly fitted or top-dose-only effect; inactive = no such curve, though single readings can be large or run the other way; tested in HEK293T cells; further: on the % scale 0 is the no-effect control and ±100 the full control effect; nearly all actives have a fitted effect of over 45% in size; luciferase light after 4 h
Cruzain inh Det: qHTS Assay for Promiscuous and Specific Inhibitors of Cruzain (with detergent). Potency, µM, for the others: max response, negative = inhibition, usual class: inhibitors. 200,000 compounds, 0.43% hits. purified cruzain, Z-FR-AMC fluorescence, 0.01% Triton; active means well fitted curve in the direction sought with a large enough effect; inconclusive means small, poorly fitted or top-dose-only effect, or another doubt; inactive means no such curve, though single readings can be large; an effect the other way counts as inactive or inconclusive;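 further: plate controls were neutral wells for no effect and buffer without enzyme for full effect; nearly all actives have a fitted effect of over 40% in size; top concentration of the series not given in the record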
Target sequence (P25779 123-467 limits assumed): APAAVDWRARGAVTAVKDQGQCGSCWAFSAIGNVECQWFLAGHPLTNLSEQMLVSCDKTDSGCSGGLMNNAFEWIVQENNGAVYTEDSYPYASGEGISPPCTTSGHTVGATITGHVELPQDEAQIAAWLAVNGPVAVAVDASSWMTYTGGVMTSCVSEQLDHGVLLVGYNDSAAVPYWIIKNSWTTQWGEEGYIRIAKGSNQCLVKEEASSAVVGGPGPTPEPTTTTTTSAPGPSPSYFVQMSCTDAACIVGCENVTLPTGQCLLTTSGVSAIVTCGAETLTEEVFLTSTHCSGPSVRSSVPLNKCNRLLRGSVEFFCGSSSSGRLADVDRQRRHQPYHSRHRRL
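Detergent-containing arm of a paired screen for aggregation-based inhibition: 0.01% Triton X-100 present. Cruzain at 1.5 nM cleaved 2 uM Z-FR-AMC at pH 5.5 with 5 mM DTT; AMC fluorescence gain over 60 s measured activity.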
SARS PLP yeast: qHTS of Yeast-based Assay for SARS-CoV PLP. S. cerevisiae expressing SARS-CoV PLpro, growth rescue; control for the full effect not named in the record. Potency, µM (highest dose often 32.9 µM), for inactives: top-dose activity, positive = growth rescue. 330,000 compounds, 0.19% hits; further: 0% is about no effect; nearly all actives have a fitted effect of over 55% in size; growth read by luminescence after 48 h
Lassa entry inh: qHTS for Inhibitors of binding or entry into cells for Lassa Virus. Lassa virus pseudotype entry inhibition, cell reporter; control for the full effect not named in the record. Potency, µM (doses to about 37.9 µM), for the others: top-dose activity change, negative = inhibition, actives largely listed as inhibitors. 300,000 compounds, 1.2% hits; active means well fitted inhibition curve with a large enough effect; inconclusive means small, poorly fitted or top-dose-only effect, or effect the other way; inactive means flat fitted curve, though single readings scatter; tested in HEK293 cells; further: on the % scale 0 is the no-effect control and ±100 the full control effect; nearly all actives have a fitted effect of over 50% in size; luciferase read-out
NS1 function inh: qHTS Assay for Inhibitors of Influenza NS1 Protein Function | AID 2326, 2010 | Potency, µM (top dose mostly 46.1 µM), without a hit: at the top dose activity, positive = more growth | S. cerevisiae slowed by influenza A NS1, growth recovery by OD600 | 270,000 compounds, 0.4% hits; further: actives are rising curves; nearly all actives have a fitted effect of over 50% in size
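Recovery from NS1-induced slow growth read by OD600 in budding yeast switched to galactose assay medium (pH 6.0, -URA) at 1:100 dilution. Compound 23 nl per well; the matching strain lacking NS1 serves as control.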
Cruzain noTriton: qHTS Assay for Promiscuous and Specific Inhibitors of Cruzain (without detergent); Cruzipain (Trypanosoma cruzi), P25779; purified cruzain, Z-FR-AMC fluorescence, no detergent; Potency, µM, inactives show max response, negative = inhibition, actives largely listed as inhibitors; 200,000 compounds, 2.3% hits; AID 1476, 2009; active means well fitted curve in the direction sought with a large enough effect; inconclusive means small, poorly fitted or top-dose-only effect, or another doubt; inactive means no such curve, though single readings can be large; an effect the other way counts as inactive or inconclusive;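 further: plate controls were enzyme without inhibitor for no effect and buffer without enzyme for full effect; nearly all actives have a fitted effect of over 40% in size; top concentration of the series not given in the record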
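Purified cruzain at 1.5 nM, pre-incubated 15 min with compound at room temperature in 100 mM sodium acetate pH 5.5, 5 mM DTT, 0.00005% Triton X-100. Reaction started with 2 uM Z-FR-AMC; AMC fluorescence increase over 60 s gives rate.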
Active calls of the source: *; ? = inconclusive; / = not tested or not shown; & = joins results of further samples; [ ] = another dose, or the depositor's remark. Unless noted, the call rests on the fitted dose curve; in most records, active means well fitted rising curve with a large enough effect; inconclusive means small, poorly fitted or top-dose-only effect; inactive means no such curve, though single readings can be large or run the other way. Potency means the concentration at half of the fitted maximal effect.

SMILES	MARV entry inh	RE007 growth inh	2A StopGo	Cruzain inh Det	SARS PLP yeast	Lassa entry inh	NS1 function inh	Cruzain noTriton
CCOC(=O)C1(Cc2cccc(OC)c2)CCCN(C(=O)c2cc(C)[nH]n2)C1 (configuration not stated)	?	-16%	69%[activator]	/	-1%	?	6%	/
Cc1cc(OCC(=O)NNC(=O)c2ccncc2)ccc1C(C)C	-30%	-11%	1%	/	/	-9%	/	/
COc1ccccc1C(=O)NCCC(=O)N(C)CC(=O)Nc1ccc(N2CCOCC2)cc1	?	8%	-7%	/	1%	0%	/	/
Cc1ccccc1N(C(=O)c1snc(C(N)=O)c1N)C(C)C(=O)NC1CCCCC1 (configuration not stated)	?	2%	-2%	/	-1%	?	12%	/
CCOC(=O)c1sc(NC(=O)c2cccc(S(=O)(=O)N(CC)CC)c2)cc1C	?	-1%	-13%	-6.0%	-6%	?	1%	17%
CC(Sc1n[nH]c(N)n1)C(=O)C12CC3CC(CC(C3)C1)C2 (configuration not stated)	-5%	-3%	-11%	0.3%	-2%	?	-5%	9%
COc1ccccc1C1CCN(Cc2ccccc2)CC1	?	-12%	-12%	/	1%	3%[46.1 µM]	0%	/
COc1cc(OC)c(C2Nc3cccc4cccc(c34)N2)c(OC)c1	/	-8%	?	/	-3%	/	-3%	/
Cc1cc(Nc2cccc(F)c2)nc(N2CCOCC2)n1	/	-5%	-9%	/	0%	/	-6%	/
Cn1c(=O)c2c(SCC(=O)NCc3ccco3)nc(-c3ccccc3)nc2n(C)c1=O	/	/	-11%	2.7%	/	13%[46.1 µM]	/	2%
Cc1ccc(OC/C(O)=C(\C#N)c2nc3ccccc3s2)cc1	3%	-16%	0%	-2.9%	-1%	4%	-15%	20µM*
Cc1cc(C)c(C(=O)Nc2ccc(C)c(C)c2)c(CC(C)(C)C(=O)O)c1	-11%[14.2 µM]	48%	10%	/	-1%	20%	0%	/
COc1ccc(-c2csc(/N=C/N(C)C)n2)cc1OC	-11%[46.1 µM]	1%	58%[activator]	/	0%	8%	3%	/
C=CCN1C(c2ccc(Br)cc2)=CS/C1=C(\C#N)c1nnc(N2CCOCC2)n1-c1ccccc1	?	-12%	?	/	/	?	/	/
O=C(NCCN1CCCC1)C1CCC(=O)N(CCCN2CCOCC2)C1 (configuration not stated)	/	-10%	-23%	/	-2%	/	-7%	/
CN(CC(=O)NCc1ccccc1)S(=O)(=O)c1ccc2c(c1)CCC(=O)N2	/	3%	10%	/	3%	/	1%	/
CNC(=O)CSc1nnc(SCCC(=O)O)s1	?	-3%	7%	-0.3%	-12%	4%	-4%	6%
Cc1cccn2c(=O)c(C=C(C#N)C#N)c(N3CCN(C)CC3)nc12	?	-18%	-24%	/	-1%	?	9%	/
O=C(Nc1ccc(Cl)c([N+](=O)[O-])c1)c1ccc2c(c1)OCCO2	?	-25%	11%	/	-7%	4%	/	/
O=S(=O)(N/N=C/c1cn(Cc2ccccc2)c2ccccc12)c1ccccc1	-6%	21%	18%	-10%	-4%	-14%	2%	-2%
CCCc1c(O)nc(SC2CC(=O)N(c3ccc(OC)cc3)C2=O)[nH]c1=O (configuration not stated)	-1%	-11%	29%	/	-1%	7%	-1%	/
Cc1ccc(-c2cc3c(n2-c2ccc(C(=O)O)cc2)CCCC3=O)cc1	?	-15%	58%[activator]	-1.7%	5%	16%	13%	-4%
CCCN1C2CCCC1CC(NC(=S)Nc1cc(C)cc(C)c1)C2 (configuration not stated)	/	-3%	-12%	/	2%	/	2%	/
CC(C)Oc1cccc(C(=O)C2CCCN(C(=O)c3csnn3)C2)c1 (configuration not stated)	-13%[46.1 µM]	-15%	-6%	/	0%	9%[46.1 µM]	-5%	/
COc1ccc(CCN(C)CCC(=O)Nc2cc(C)ccc2C)cc1OC	-28%	-4%	0%	-12%	1%	-5%	-10%	-25%
SMILES	MARV entry inh	RE007 growth inh	2A StopGo	Cruzain inh Det	SARS PLP yeast	Lassa entry inh	NS1 function inh	Cruzain noTriton
Nc1nc(SCC(=O)NCCCN2CCOCC2)nc2sc3c(c12)CCC3	1%	19%	/	-5.9%	1%	21%	20%	7%
O=C(COc1ccccc1C(=O)O)NC1CCCc2ccccc21 (configuration not stated)	?	41%	-9%	/	1%	?	/	/
CC(C)CCNC(=O)c1cn(C)c2ccc(S(=O)(=O)N3CCCC3)cc2c1=O	8%&8%[46.1 µM]	13%	-4%&-17%	-1.2%	-2%	-5%[46.1 µM]	3%	-8%
CCS(=O)(=O)c1ncc(N(Cc2ccc(F)cc2)Cc2ccco2)c(C(=O)Nc2cc(C)ccc2C)n1	?	/	7%	-3.7%	/	-23%[46.1 µM]	/	-19%
CCN(C(=O)c1ccc(Br)o1)C1CCS(=O)(=O)C1 (configuration not stated)	14%	9%	-10%	/	1%	-1%	/	/
OC(COC(c1ccccc1)c1ccccc1)CN1CCN(c2ccccn2)CC1 (configuration not stated)	?	-9%	-5%	-1.8%	5%	-23%	-3%	12%
COc1ccc(S(=O)(=O)NCC2CCC(C(=O)NCc3cccnc3)CC2)cc1 (configuration not stated)	-7%[46.1 µM]	-2%	20%	/	4%	-4%	/	/
CC1CCCC(C)N1C(=O)CN1C(=O)C(C)(C)Oc2ccc(C(=O)NC3CCCCC3)cc21 (configuration not stated)	14%	10%	3%	6.8%	/	0%	-9%	19%
Cc1ccc(-c2nc3ccccc3s2)cc1NC(=O)c1ccc2c(c1)OCO2	19%	8%	/	3.5%	-3%	12%	2%	?
O=C(CN1CCCCC1)Nc1nc(-c2ccc(Cl)cc2)cs1	9%[46.1 µM]	5%	-23%	/	0%	-25%[46.1 µM]	5%	/
CC(C)c1ccc(-n2ccnc2SCC(=O)O)cc1	-1%	-3%	7%	/	0%	22%	4%	/
CCCN1CCC2(CC1)NC(C(=O)O)Cc1c2[nH]c2ccccc12 (configuration not stated)	/	-12%	4%	/	13%	/	3%	/
O=C(COc1cccc(C(F)(F)F)c1)N1CCN(c2ccccc2O)CC1	11%[46.1 µM]	-16%	-21%	/	-9%	?	/	/
CCOC(=O)C1CCN(C(=O)c2ccc3c(c2)OCO3)CC1	10%	12%	7%	4.7%	3%	9%	-12%	14%
N=c1oc2cc(O)ccc2cc1C(=O)Nc1ccc(Cl)cc1	?	-18%	-12%	/	-5%	14%[46.1 µM]	-41%	/
COc1ccc2oc(=O)c(C(=O)Oc3ccc(NC(C)=O)cc3)cc2c1	?	2%	/	0.0%	4%	21%	-8%	-4%
C[C@@H]1CCCCCCCCCCC1=O	?	0%	-6%	/	0%	9%[46.1 µM]	-5%	/
Cc1cccc(NC(=O)CSc2nnc(C3CC3)n2CC2CCCO2)c1 (configuration not stated)	-29%[46.1 µM]	6%	9%	/	8%	?	13%	/
Cc1nc(-c2ccc(Cl)cc2)sc1CCNC(=O)C(=O)Nc1ccc(F)cc1F	/	/	5%	-0.9%	/	7%[46.1 µM]	/	0%
CCCCc1nn2c(=O)cc(COC(=O)c3ccccc3NC(=O)c3cccc(C)c3)nc2s1	/	/	-6%	-0.3%	/	2%[46.1 µM]	/	-12%
Cc1ccc(-c2nc(N)n(S(C)(=O)=O)n2)cc1	21%	9%	36%[activator]	2.9%	0%	?	8%	-6%
COc1cc(NC(=O)N2CCNC2=O)cc(C(=O)Nc2cccc(C(F)(F)F)c2)c1	/	5%	?	/	2%	/	-3%	/
CCOC(=O)CSc1nnc(-c2ccc(S(=O)(=O)N3CCC(C)CC3)cc2)o1	0%	-8%	5%	3.6%	1%	4%	6%	17%
O=C(C[n+]1ccc2c(c1)nnn2-c1ccccc1)c1ccc(Cl)cc1	-21%	20%	-26%	/	1%	2%	7%	/
Nc1ccccc1N1CCOCC1	-3%	15%	8%	-11%	2%	12%	0%	-3%
SMILES	MARV entry inh	RE007 growth inh	2A StopGo	Cruzain inh Det	SARS PLP yeast	Lassa entry inh	NS1 function inh	Cruzain noTriton
COc1c(/C=N/NC(=O)c2ccncc2)c(CCN(C)C(C)=O)cc2c1OCO2	-1%[46.1 µM]	2%	3%	/	-2%	-1%[46.1 µM]	3%	/
CCOC(=O)Cc1csc(NC(=O)c2cc3c(s2)CCCC3)n1	?	-30%	-18%	-0.6%	2%	?	1%	-3%
c1cncc(-c2nc(-c3ccc4c(c3)OCCO4)cs2)c1	/	-20%	4%	/	-8%	/	-68%	/
CC1(C)C2CCC13CS(=O)(=O)NC3C2 (configuration not stated)	-1%[46.1 µM]	2%	-5%	1.1%	17%	3%	-2%	2%
COc1cccc(CNC(=O)c2c[nH]n3c(=O)c(Cl)c(C)nc23)c1	5%	-12%	14%	-12%	-9%	5%	3%	?
Cc1ccc(-n2c(O)c(/C=N/c3ncn[nH]3)c3ccccc3c2=O)cc1	?	11%	-7%	/	-5%	?	/	/
Cc1cccc(N2CCN(S(=O)(=O)c3ccc(S(=O)(=O)N4CCCC4)cc3)CC2)c1C	?	-9%	4%	2.6%	-1%	-6%	1%	10%
O=c1[nH]c2cc3c(cc2cc1CN(Cc1ccc2c(c1)OCO2)Cc1nnnn1CC1CCCO1)OCO3 (configuration not stated)	?	8%	33%[activator]	-4.7%	-3%	2%	8%	0%
O=S(=O)(Nc1ccccc1Cl)c1ccc(NS(=O)(=O)c2cccs2)cc1	3%[46.1 µM]	7%	4%	/	2%	0%	28%	/
Cc1cc(C)n2nc(SCC(=O)N/N=C/c3cccc(Br)c3)nc2n1	-25%	2%	/	0.8%	/	6%	-3%	?
Cc1ccc(S(=O)(=O)Cc2sc3ccccc3[n+]2C)cc1	2%	20%	91%[activator]	-3.7%	0%	0%	-2%	?
Fc1ccc(/C=C/c2nnc(-c3cccs3)o2)cc1	?	6%	30%	-6.1%	14%	-29%[46.1 µM]	-7%	-7%
CC(COc1ccccc1)OC(=O)Nc1ccccc1 (configuration not stated)	-2%	-12%	44%[activator]	/	/	?	/	/
Cc1cccc(S(=O)(=O)Nc2ccncc2)c1	?	21%	10%	/	0%	/	-1%	/
